MT1-MMP act inh: MT1-MMP (human) activation inhibition; AID 651647; actives 0.061% (n = 360,000); GFP/RFP ratio change, % at 20 µM; HT1080 RFP-PRO-GFP cells, GFP/RFP ratio fluorescence, overnight; percent of plate control window, DMSO zero;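 active means GFP/RFP ratio change of at least 30% with cell ATP level not reduced by more than half and red fluorescence within 50% of control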; further: strong numbers were not always called active
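Assay system: RFP-PRO-GFP reporter HT1080 cells; read-out basis: GFP/RFP fluorescence ratio; benchmarks: DMSO wells and RFP-L50D-GFP cells; doses: 20 µM single dose, 1% DMSO; schedule: overnight cell settling, then overnight compound exposure, 37 °C, 5% CO2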
HIV Env fusion: inhibitors of HIV Env-mediated cell fusion. HeLa-JRFL Env/CEM21 cell fusion, luciferase. AID 651610. actives 1.1% (n = 360,000). inhibition, % at 12.3 µM;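 active means mean replicate inhibition score of at least 50 and every replicate individually at or above 50; inconclusive means only one of the two criteria met; inactive means mean below 50 and not all replicates reaching 50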;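 further: 0% = plate neutral controls and 100% = maraviroc near 300 nM; one replicate is shown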
eIF4H FP inh: inhibitors of RNA binding by human eIF4H; inhibition, % at 35 µM; eIF4H fluorescence polarization binding assay; AID 2012; actives 0.94% (n = 290,000);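 active means 50% or more with normal probe brightness, or confirmed in later tests; inconclusive means above 50% with abnormal brightness, or retests that disagree; inactive means below 50% or failed in later tests; about a fifth of its hits are not listed in these tables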;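 further: calls also rest on retests at 20 µM and on dose response follow-up; 0% = protein and probe with vehicle and 100% = probe without protein; strong numbers were not always called active; many hits fall short of the cut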
Rce1 inhib: inhibitors of yeast Ras-converting enzyme; yeast membranes, quenched prenylated peptide cleavage fluorescence; actives 0.27% (n = 290,000); AID 2563; Q03530; calls only;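 active means fall in fluorescence gain of 50% or more versus controls, with final raw signal at or below 3038400; inconclusive means same 50% fall but final raw signal above 3038400; inactive means fall in fluorescence gain under 50%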;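 further: plate controls were neutral control wells for no effect and wells lacking membranes for full effect; tested at 10 µM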
Target sequence (Q03530 whole entry, looked up): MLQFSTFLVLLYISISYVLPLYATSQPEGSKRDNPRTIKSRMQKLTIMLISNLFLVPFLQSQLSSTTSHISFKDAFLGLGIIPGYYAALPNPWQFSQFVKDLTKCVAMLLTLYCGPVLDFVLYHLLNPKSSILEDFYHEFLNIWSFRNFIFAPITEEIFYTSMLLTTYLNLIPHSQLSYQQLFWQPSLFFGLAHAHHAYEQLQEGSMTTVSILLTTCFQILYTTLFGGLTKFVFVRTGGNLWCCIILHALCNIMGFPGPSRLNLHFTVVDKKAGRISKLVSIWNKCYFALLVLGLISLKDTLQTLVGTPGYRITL
CSC inhib: blocks cancer stem cells; cancer stem cell-like cells viability, luminescence; inhibition, % at 7.5 µM; actives 1.1% (n = 300,000);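 active means mean at 75% or more and at least half the replicates too; inconclusive means mean and replicates disagree; tested in HMLE shEcad cells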;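 further: 0% = median of negative and 100% = median of positive control wells; the first replicate is given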
PABP polyA inh: PABP-poly(A) binding inhibition. actives 1% (n = 290,000). P11940. AID 2014. inhibition, % at 35 µM. PABP-poly(A) RNA binding, fluorescence polarization;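 active means 50% or more with normal probe brightness, or confirmed in later tests; inconclusive means above 50% with abnormal brightness, or retests that disagree; inactive means below 50% or failed in later tests; about a fifth of its hits are not listed in these tables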;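 further: calls also rest on retests at 20 µM and on dose response follow-up; controls were probe without protein and protein plus probe with vehicle; some compounds called inactive have numbers as strong as hits; many hits fall short of the cut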
UUG fidelity: modulators of start codon recognition fidelity in yeast; S. cerevisiae UUG-firefly luciferase reporter, luminescence/redox ratio; actives 0.13% (n = 350,000); activity score, % at 18.7 µM;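 active means replicate mean at a twofold rise or more, about +100% in these data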;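 further: firefly luciferase made from a UUG start codon reports start codon fidelity; reporter light over untreated wells divided by growth signal over untreated wells; some hits fall short of that in this replicate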
MT1-MMP act inh RFP: also measured in MT1-MMP act inh; calls as there; RFP signal change, %; measured here: RFP expression control read;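 0 = vehicle wells; hits needed this value within 50% of zero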
Starred values were filed as active, the others as inactive; i = inactive; ? = inconclusive; nt = not tested or not shown. This is a subset. The share of hits here may be higher or lower than overall.

nr	Structure	MT1-MMP act inh	MT1-MMP act inh RFP	HIV Env fusion	eIF4H FP inh	Rce1 inhib	CSC inhib	PABP polyA inh	UUG fidelity
1	CSc1nsc(NC(=O)OCc2ccc(Cl)cc2)n1	1	-10	-5	2	i	13	15	-16
2	Cc1noc(C)c1CSc1ccccc1C(=O)O	3	7	-33	-11	i	-7	-7	-18
3	COc1cc(C(C(=O)NC2CCCC2)N(C(=O)c2snc(C(N)=O)c2N)C2CCCC2)cc(OC)c1OC (configuration not stated)	-2	-3	13	-2	i	-1	21	8
4	O=C(Nc1ccc(NS(=O)(=O)c2ccccc2)cc1)c1ccc(Cl)cc1	0	-1	-17	-8	i	18	2	-26
5	CN(C)S(=O)(=O)c1cccc(NC(=O)COC(=O)/C=C/c2cccs2)c1	-3	2	7	1	i	-6	-3	16
6	CCCCNC(=O)c1nn(-c2ccccc2OC)c(=O)c2ccccc12	3	2	nt	-6	i	-6	-9	-9
7	O=C(NCC1CCCO1)c1ccc(Br)c(S(=O)(=O)N2CCOCC2)c1 (configuration not stated)	1	0	7	nt	nt	nt	nt	-5
8	Cc1ccc(-c2nnc(SCC(=O)N3c4ccccc4NC(=O)C3(C)C)n2N)cc1	-1	2	-61	-8	i	7	2	-2
9	O=C(Nc1ccc(Cc2ccncc2)cc1)c1ccc([N+](=O)[O-])o1	3	-4	-198	1	i	18	-5	-5
10	O=C(NCC(=O)N1CC=C(c2ccccc2)CC1)c1ccccc1Br	3	-4	-18	-2	i	13	0	-7
11	COc1ccc(NC(=O)COc2ccccc2C(N)=O)cc1S(=O)(=O)N1CCCCC1	3	-5	4	nt	nt	nt	nt	-13
12	CCOC(=O)Cn1c(=NC(=O)c2nc3ccccc3s2)sc2cc(S(N)(=O)=O)ccc21	-2	2	-16	6	i	-14	1	-10
13	CC(C)C1C(C#N)=C(N)SC(N)=C1C#N	-4	-1	-30	-4	i	1	8	-17
14	COc1ccc(C(=O)Nc2cc(C(=O)O)cc(C(=O)O)c2)cc1Cl	1	5	17	5	i	-6	3	nt
15	CCOC(=O)c1cc(C(=O)Nc2cccc(C)c2)nn1C	0	3	-253	8	i	6	-4	-32
16	CCN(CC)c1ccc(/C=N/N2CCOCC2)cc1	-4	-5	-101	-5	i	-6	-7	-21
17	O=C(Oc1ccc(N2C(=O)CCC2=O)cc1)c1ccco1	0	6	nt	5	i	-10	5	-6
18	CCn1c(SCC(=O)N2CCc3ccccc32)nnc1-c1ccco1	1	-2	nt	0	i	nt	2	42
19	CCCCn1c(SCC(=O)Nc2cc(C)on2)nnc1-c1cccs1	0	1	-13	1	i	-3	14	-8
20	CCN(c1ccc(NC(=O)COC(=O)c2ccc3ccccc3n2)cc1)C(C)C	6	5	-31	10	i	-11	-3	-2
21	COC(=O)c1c(-c2ccc(C)cc2)csc1NC(=S)NC(=O)c1ccc(F)cc1	-6	0	3	-2	i	-9	7	nt
22	Cc1ccccc1Nc1nc(N)nc(CSc2ccccc2)n1	0	-1	-74	-14	i	-19	12	nt
23	Nc1ccc(-n2nncc2-c2ccccc2)cc1	3	6	nt	-4	i	-9	-2	-6
24	NC(=O)c1oc2ccccc2c1NC(=O)CCc1ccccc1	0	9	-14	4	i	-6	-7	4
25	CCC(=O)Nc1nc2ccc([N+](=O)[O-])cc2s1	-17	-11	-111	-1	i	nt	14	nt
26	C=CCc1c(N(CC)CC)nc(C)[nH]c1=O	-1	2	5	-6	i	-9	-4	-17
27	COc1ccc(Br)cc1CNCCSc1nnnn1C	-5	0	-79	8	i	-5	11	-16
28	CCN(CC)CCCNC(=O)CC1Sc2ccccc2NC1=O (configuration not stated)	0	4	nt	-6	i	-9	-3	-13
29	Clc1ccc(-c2cccs2)nn1	4	2	-54	-10	i	nt	-4	nt
30	CC1CC(C)CN(C(=O)c2ccc(NS(=O)(=O)c3ccc4[nH]c(=O)[nH]c4c3)cc2)C1 (configuration not stated)	6	0	31	nt	i	1	nt	nt
31	Cn1c(Cc2ccccc2)nnc1SCC(=O)NCCc1ccccc1	-4	-1	18	-12	i	-4	?	nt
32	Cc1ccc(SCCC(=O)N2CCC(C)CC2)cc1	-1	-7	-60	0	i	20	1	-36
33	O=C(O)CN1C(=O)/C(=C\c2cccc(OCc3ccccc3F)c2)SC1=S	1	4	9	-4	i	19	8	-1
34	CC(=O)c1cccc(CN2CCC(n3nccc3NC(=O)CCCc3ccccc3)CC2)c1	4	1	-10	-9	i	-10	-4	13
35	CC(=O)NCCc1ccc(S(=O)(=O)NCc2ccc3c(c2)OCO3)cc1	-4	-1	nt	-11	i	-9	-14	-10
36	CC(C)(C)N/N=C1\CC(c2ccccc2)Oc2ccccc21 (configuration not stated)	-6	-3	21	-6	i	nt	7	nt
37	CCOC(=O)c1c(CN(C)C)oc2cc(CN(C)C)c(O)c(CSc3ccccc3)c12	-14	-8	nt	-7	i	-2	21	-4
38	COc1ccc(S(=O)(=O)N2CCOCC2)cc1NC(=O)CSc1cc(C)ccc1C	0	-9	8	nt	nt	nt	nt	3
39	CCN(CC)S(=O)(=O)c1ccc(NC(=O)COc2cccc(-n3cnnn3)c2)cc1	-2	1	-10	nt	nt	-9	nt	-16
40	Cc1ccc(-n2nnnc2-c2cnc3cc4c(cc3c2C)OCO4)cc1	3	-2	-6	1	i	-3	-9	6
41	C#CCN1C(=O)C(O)(CC(=O)c2cc(OC)ccc2OC)c2ccccc21 (configuration not stated)	3	9	-60	3	i	3	2	-12
42	CCc1cc(C(=O)N/N=C/c2ccc(O)cc2)c2ccccc2n1	0	-1	1	-8	i	1	1	2
43	COc1cccc(C2=CC(=O)C[C@H](c3ccc(F)cc3)C2)c1OC	1	-4	32	nt	nt	-15	nt	-2
44	Nc1nonc1-n1nnc(C(=O)N/N=C/c2cccnc2)c1CSc1ccc(Cl)cc1	-1	-1	7	-8	i	-2	0	-7
45	Cc1cc(NC(=O)CS(=O)(=O)c2cn(Cc3ccccc3Cl)c3ccccc23)no1	-9	-16	90*	-2	i	11	-3	-11
46	N=c1c2c(n(Cc3ccccc3)c3c1CCC3)CCC2	-9	-30	nt	0	i	-4	-3	-5
47	O=C(c1cccc(S(=O)(=O)N2CCCCCC2)c1)N1CCN(c2ccccc2F)CC1	1	-5	-3	-8	i	-3	7	-5
48	COc1ccc(NC(C#N)c2ccccc2OCc2ccccc2)cc1 (configuration not stated)	1	-2	-17	1	i	47	5	3
49	O=C(CS(=O)CC(=O)N(CC(=O)NC1CCCC1)c1ccc2c(c1)OCCO2)Nc1ccc(F)cc1 (configuration not stated)	6	4	-38	-7	i	-14	4	-7
50	CN(c1ccccc1)S(=O)(=O)c1cccc(C(=O)N2CCCCCC2)c1	0	-2	6	nt	nt	nt	nt	-13

Further structures follow:
nr	Structure	MT1-MMP act inh	MT1-MMP act inh RFP	HIV Env fusion	eIF4H FP inh	Rce1 inhib	CSC inhib	PABP polyA inh	UUG fidelity
51	COc1ccc(/C=N/NC(=O)c2c(C)n(C)c3ccc(OC)cc23)c(OC)c1	5	8	-22	-5	i	-2	?	nt
52	Cc1cc(C(=O)NCCc2ccc(S(N)(=O)=O)cc2)no1	4	8	6	4	i	-4	11	nt
53	Cn1ccsc1=NC(=O)c1cccc(OC(F)F)c1	-4	0	-49	-7	i	-8	-5	-19
54	CCCC(=O)Nc1c2c(nn1-c1cccc(Cl)c1)CS(=O)(=O)C2	0	3	-20	-6	i	13	0	-13
55	CCC1Oc2ccccc2N(CC(=O)Nc2ccccc2OC)C1=O (configuration not stated)	-6	2	nt	-1	i	7	-14	-15
56	CC(C)(C)OC(=O)N1CCC(C(=O)N[C@@H](Cc2ccccc2)C(=O)O)CC1	3	-1	nt	-8	i	14	-7	-6
57	COc1ccc(F)cc1S(=O)(=O)NC1CC(C)(C)NC(C)(C)C1	-1	3	nt	-2	i	-7	-2	nt
58	CC(OC(=O)c1ccc(S(C)(=O)=O)c([N+](=O)[O-])c1)C(=O)NC1C2CC3CC(C2)CC1C3 (configuration not stated)	2	-20	-57	nt	nt	nt	nt	-13
59	CCCc1c(C(=O)Nc2ccc(F)cc2)cnn1-c1ccccc1	-1	-6	7	-1	i	-10	-1	-30
60	Cc1cc(NC(=O)C2CCN(S(=O)(=O)c3cccs3)CC2)no1	1	3	nt	-1	i	-8	-5	-35
61	CCOC(=O)C1=C(c2ccccc2)NC(=O)NC1c1ccc(OC)cc1OC (configuration not stated)	1	3	-15	6	i	-3	13	nt
62	CSCCNC(=O)Nc1c(-c2c(Cl)cccc2Cl)noc1C	-2	1	7	3	nt	-9	-6	nt
63	Cc1ccc(C(=O)COC(=O)CCN2C(=O)C3C4CCC(C4)C3C2=O)cc1C (configuration not stated)	3	0	-4	-14	i	8	-12	13
64	CCOC(=O)c1cnn(-c2cc(C(C)(C)C)nc3c(-c4ccccc4)c(C)nn23)c1N	5	3	9	6	i	-3	2	-8
65	CCn1c(SCC(=O)Nc2ccc(OC)cc2)nc2nc3c(cc2c1=O)CCCC3	-6	-5	7	-14	i	57	-1	-6
66	Cc1nn(C)c(=O)c(N)c1-c1cc(-c2ccc(Cl)c(Cl)c2)n[nH]1	8	0	-22	-12	i	-11	-10	2
67	COc1cccc(-c2cc(C(=O)NCCCn3ccnc3)no2)c1	-2	-3	-30	-9	i	7	-10	-8
68	Cc1ccc(S(=O)(=O)c2cc(O)ccc2O)cc1C	1	3	11	-6	i	1	-3	nt
69	O=C(NCCc1ccccc1)c1ccc(Cl)cc1[N+](=O)[O-]	0	2	-24	-14	i	-11	10	-17
70	Cn1ncc(Cl)c1C(=O)N/N=C/c1cc2c(cc1[N+](=O)[O-])OCO2	0	-3	0	34	i	-10	9	nt
71	O=C1CCCN1c1ccc(S(=O)(=O)Nc2ccc3c(c2)OCCO3)cc1	-7	-15	nt	8	i	42	3	nt
72	O=C(Nc1ccc(NC(=O)c2ccco2)nc1)c1cccc(F)c1	0	0	-25	-5	i	0	7	-21
73	CCOC(=O)c1ccccc1NS(=O)(=O)c1c(C)nc2sccn2c1=O	0	-1	8	-6	i	1	-13	-1
74	CCC1CSC(Nc2ccc(C(=O)/C=C/c3cccc(C)c3)cc2)=N1 (configuration not stated)	-10	-20	?	-3	i	87*	4	nt
75	CC(C)N(Cc1nccn1C)C(=O)c1cc(COc2ccc3ncccc3c2)on1	-7	-28	-4	-3	i	-5	-5	2
76	CCOC(=O)CN(C(=O)c1snc(C(N)=O)c1N)C(C(=O)NC1CCCCC1)c1ccc(F)cc1 (configuration not stated)	1	4	4	-2	i	15	-4	-25

Source: PubChem
